UUG fidelity: modulators of yeast start codon fidelity, primary screen, whole organism, S. cerevisiae, single point, plate reader | S. cerevisiae UUG-firefly luciferase reporter, luminescence/redox ratio | activity score, % at 18.7 µM | hit rate 0.13% among 350,000 | AID 602363, 2012;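 active = replicate mean at a twofold rise or more, about +100% in these data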;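 also: firefly luciferase made from a UUG start codon reports start codon fidelity; reporter light over untreated wells divided by growth signal over untreated wells; some hits fall short of that in this replicate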
Rce1 inhib: yeast Rce1p protease inhibitors, primary screen, biochemical, fluorescence, cell-free homogeneous. CAAX prenyl protease 2 (Saccharomyces cerevisiae (strain ATCC 204508 / S288c)), Q03530. yeast membranes, quenched prenylated peptide cleavage fluorescence. calls only. hit rate 0.27% among 290,000. AID 2563, 2010;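 active = fall in fluorescence gain of 50% or more versus controls, with final raw signal at or below 3038400; inconclusive = same 50% fall but final raw signal above 3038400; inactive = fall in fluorescence gain under 50%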;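 also: plate controls were neutral control wells for no effect and wells lacking membranes for full effect; tested at 10 µM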
eIF4H FP inh: human eIF4H binding inhibitors, primary screen, translation initiation inhibitor project, biochemical, uHTS, fluorescence polarization. eIF4H fluorescence polarization binding assay. hit rate 0.94% among 290,000. inhibition, % at 35 µM. Eukaryotic translation initiation factor 4H (Homo sapiens), Q15056;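 active = 50% or more with normal probe brightness, or confirmed in later tests; inconclusive = above 50% with abnormal brightness, or retests that disagree; inactive = below 50% or failed in later tests; about a fifth of its hits are not listed in these tables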;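 also: calls also rest on retests at 20 µM and on dose response follow-up; 0% = protein and probe with vehicle and 100% = probe without protein; strong numbers were not always called active; many hits fall short of the cut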
HIV Env fusion: inhibitors of HIV-1 Env-driven cell-cell fusion, primary screen, HeLa-JRFL effector, CEM21 target cells, luciferase. AID 651610, 2012. hit rate 1.1% among 360,000. inhibition, % at 12.3 µM;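 active = mean replicate inhibition score of at least 50 and every replicate individually at or above 50; inconclusive = only one of the two criteria met; inactive = mean below 50 and not all replicates reaching 50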;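 also: 0% = plate neutral controls and 100% = maraviroc near 300 nM; one replicate is shown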
CSC inhib: cancer stem cell viability inhibitors, primary screen, luminescence; inhibition, % at 7.5 µM; hit rate 1.1% among 300,000; cancer stem cell-like cells viability;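 active = mean at 75% or more and at least half the replicates too; inconclusive = mean and replicates disagree; tested in HMLE shEcad cells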;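 also: 0% = median of negative and 100% = median of positive control wells; the first replicate is given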
MT1-MMP act inh: blockers of MT1-MMP proenzyme processing, primary screen, HT1080 RFP-PRO-GFP cells, GFP/RFP fluorescence; Matrix metalloproteinase-14 (Homo sapiens), P50281; GFP/RFP ratio fluorescence, overnight; percent of plate control window, DMSO zero; GFP/RFP ratio change, % at 20 µM; hit rate 0.061% among 360,000;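 active = GFP/RFP ratio change of at least 30% with cell ATP level not reduced by more than half and red fluorescence within 50% of control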; also: strong numbers were not always called active
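Assay system – RFP-PRO-GFP reporter HT1080 cells · Compound dosing – single dose of 20 µM compound, 1% DMSO final · Incubation – overnight compound exposure at 37 °C · Measure – GFP/RFP fluorescence ratio · Benchmarks – DMSO wells and RFP-L50D-GFP cells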
PABP FP inh: PABP poly(A) RNA binding inhibitors, primary screen, biochemical, fluorescence polarization, uHTS. inhibition, % at 35 µM. AID 2014, 2009. hit rate 1% among 290,000. Polyadenylate-binding protein 1 (Homo sapiens), P11940;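 active = 50% or more with normal probe brightness, or confirmed in later tests; inconclusive = above 50% with abnormal brightness, or retests that disagree; inactive = below 50% or failed in later tests; about a fifth of its hits are not listed in these tables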;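 also: calls also rest on retests at 20 µM and on dose response follow-up; controls were probe without protein and protein plus probe with vehicle; some compounds called inactive have numbers as strong as hits; many hits fall short of the cut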
Target sequence (P11940 whole entry, looked up): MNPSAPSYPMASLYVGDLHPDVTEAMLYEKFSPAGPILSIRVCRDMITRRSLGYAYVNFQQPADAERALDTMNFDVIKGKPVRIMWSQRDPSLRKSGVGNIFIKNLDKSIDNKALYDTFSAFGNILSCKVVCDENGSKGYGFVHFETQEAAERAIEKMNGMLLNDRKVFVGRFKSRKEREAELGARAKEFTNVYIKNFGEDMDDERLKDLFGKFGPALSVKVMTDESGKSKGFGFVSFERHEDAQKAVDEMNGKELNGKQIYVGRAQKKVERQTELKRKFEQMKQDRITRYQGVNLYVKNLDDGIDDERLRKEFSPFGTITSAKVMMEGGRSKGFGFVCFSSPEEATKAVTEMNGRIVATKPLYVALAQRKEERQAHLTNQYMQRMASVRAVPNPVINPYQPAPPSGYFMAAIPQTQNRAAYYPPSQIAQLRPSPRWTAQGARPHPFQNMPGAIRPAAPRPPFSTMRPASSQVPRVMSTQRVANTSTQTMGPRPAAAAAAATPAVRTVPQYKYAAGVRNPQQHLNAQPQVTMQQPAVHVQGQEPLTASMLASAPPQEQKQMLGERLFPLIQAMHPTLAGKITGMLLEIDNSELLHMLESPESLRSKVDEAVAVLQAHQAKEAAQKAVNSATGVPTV
eIF4H FP inh retest: further read-out of eIF4H FP inh, marked with its call; inhibition, %; compound at 20 µM; confirmation average;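 mean of two retest wells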
PABP FP inh retest: recorded beside PABP FP inh, whose call it bears; inhibition, %; compound at 20 µM; confirmation repeats;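 mean of two retest wells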
MT1-MMP act inh RFP: recorded beside MT1-MMP act inh, whose call it bears; RFP signal change, %; measured here: RFP expression control read;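 0 = vehicle wells; hits needed this value within 50% of zero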
An asterisk follows results filed as active; i = inactive; u = inconclusive; x = not tested or not shown; & = joins results of further samples. Not all compounds are listed; rates above refer to the full screens.

SMILES	UUG fidelity	Rce1 inhib	eIF4H FP inh	HIV Env fusion	CSC inhib	MT1-MMP act inh	MT1-MMP act inh RFP	PABP FP inh	others
CCOc1ncccc1C(=O)Nc1ccc(C)cn1	-27	i	-7	9	-6	-1	-1	2
O=C(CN1C(=O)C2CCCCN2C(=O)c2ccccc21)Nc1ccc(F)cc1 (stereo not given)	x	i	-9	4	-6	1	2	1
CN(C)C(=O)CSc1ccc(S(=O)(=O)N2CCCC2)cn1	-14	x	x	0	x	-2	2	x
CN(CC(=O)N1CCN(c2ccccn2)CC1)S(=O)(=O)c1ccccc1	1	i	3	x	-2	3	0	16
COc1cc(NS(=O)(=O)c2c(C)oc3c(F)c(F)c(F)c(F)c23)cc(OC)c1OC	4	i	-3	32	-7	0	-5	-3
Cc1cccc(NC(=S)N2CCN(S(C)(=O)=O)CC2)c1	-11	i	-2	-6	-15	0	3	5
COc1ccc(CCNC(=O)c2n[nH]c(=O)c3ccccc23)cc1	-2	i	-2	x	-12	1	3	1
CC(=O)Oc1ccc(C(=O)OCC(=O)c2c(N)n(C)c(=O)n(C)c2=O)cc1OC(C)=O	-4	i	1	-10	-5	4	2	26
O=C(NCc1cccs1)c1ccc2c(c1)ncn2C1CCCC1	-21	i	-8	-1	0	8	5	-3
C=CCn1c(SCC(=O)Nc2cccnc2Cl)nnc1-c1ccc(Cl)cc1	-20	i	-3	x	-7	0	-9	2
COc1ccc2[nH]c(C(=O)N3CCN(c4ccccc4F)CC3)c(C)c2c1	2	i	-2	-6	-9	0	6	1
CCCCOC(=O)Cn1c(=O)n(CC(=O)OCCCC)c2cc(C)ccc21	4	i	-14	x	0	4	5	-8
Cc1cc(-c2ccc(C)c(S(=O)(=O)Nc3cccc(CN4CCCC4)c3)c2)on1	-13	i	-9	-12	-10	-4	-1	5
O=C(c1cc(C(=O)N2CCOCC2)c2nc3ccccc3n2c1)c1ccccc1O	x	i	2	19	-3	x	x	16
COc1ccc(-c2nc3c(=O)n(C)c(=O)[nH]c3n2CCc2ccccc2)cc1	1&-13	i	2	x	x	-1	5	9
COc1ccc(N2C(=O)CCC(C(=O)Nc3ccccn3)C2c2ccc(OC)c(OC)c2)cc1 (stereo not given)	-14	i	-11	14	8	-1	7	-4
COc1cc(C(=O)OCCN2CCOCC2)cc(OC)c1OC	3	i	-5	x	9	7	-2	17
Cn1c(CCNC(=O)c2cccs2)nnc1SCC(=O)N1CCN(c2ccccc2)CC1	-11	i	1	-6	-10	0	0	0
Cc1ccc(CS(=O)(=O)c2ncc(Cl)c(C(=O)Nc3nnc(C)s3)n2)cc1	-19	i	-10	-234	x	1	-7	18
COc1ccc(S(=O)(=O)N2CCCC2=O)cc1N(C)S(C)(=O)=O	-4	i	6	-4	x	-1	-1	-1
CS(=O)(=O)N(CC(=O)NCCSCc1cccc(Cl)c1)c1ccc(F)cc1	11	i	-5	41	-7	-1	0	-8
Cc1cc(NC(=O)C(C)SCC(=O)OC(C)C(=O)Nc2cccc(C#N)c2)no1 (stereo not given)	-9	i	x	-9	-14	0	3	x
O=C(SCc1c(O)c2ccccc2oc1=O)c1ccccc1	-27	x	x	17	x	1	3	x
CC(NC(=O)Nc1ccc(F)cc1)c1ccc2c(c1)OCO2 (stereo not given)	-4	i	-9	0	1	1	-2	2
CCCCN1C[C@H](CSC)[C@@H](CC(=O)NC)C1=O	8	x	x	23	x	1	1	x
COc1ccc(S(=O)(=O)NC2CC(=O)N(c3ccc(C)c(C)c3)C2)cc1C (stereo not given)	-11	i	x	6	-16	-9	-2	x
O=C(Nc1ccc(Nc2ccccc2)cc1)c1cccc(F)c1	-9	i	-7	-35	75*	2	-3	10
O=C(CSc1nc2ccccc2n1Cc1ccc(Cl)cc1)N/N=C/c1ccccc1C(=O)O	x	i	-5	6	-6	-2	-7	-6
O=C(CSC1=Nc2ccccc2C2=NC(CC(=O)NC3CCCCC3)C(=O)N12)NCc1ccco1 (stereo not given)	0	i	u	-24	-11	-6	2	u
CN1CCN(C2OC(=O)c3ccccc32)CC1 (stereo not given)	-8	i	6	-28	-1	-4	1	7
Cc1cc(C)n(Cc2cccc(F)c2)c(=O)c1C#N	x	i	-4	x	-4	0	3	-2
CCCS(=O)(=O)c1nc(S(=O)(=O)c2ccc(C)cc2)c(NCc2ccc3c(c2)OCO3)s1	x	i	-2	16	x	-2	-2	-6
CCCC/C(C)=N\NC(=O)CNS(=O)(=O)c1ccc([N+](=O)[O-])cc1	6	i	-7	x	-25	1	3	0
O=C(C[C@H]1C/C=C\CCC(=O)OC[C@H]2CCCN2C1=O)NCCO	1	x	x	12	x	2	10	x
Nc1cccc(S(=O)(=O)Nc2ccc(Br)cc2)c1	-13	i	-2	16	21	0	0	1
CSc1nc2n(n1)C(c1cc(Br)ccc1F)C(C(=O)N(C)C)=C(C)N2 (stereo not given)	-1	i	-6	23	8	-1	2	10
Cc1ccc2nc3c(cc(C(=O)NCCc4ccccc4)c(=N)n3CCN3CCOCC3)c(=O)n2c1	10	i	2	x	13	0	-3	12
CCOc1cnc(-c2c(-c3c(Cl)cccc3Cl)noc2C)o1	-15	i	-6	-6	7	3	2	-4
O=C(NCCc1ccccc1)c1ccnc(/C=N/O)c1	-8	i	-2	x	-7	-4	-3	0
COCc1cc(C)nc(OCC(=O)N/N=C/c2ccc(OC)c(OC)c2)c1C#N	x	i	-1	26	-7	2	1	10
CN(C)C=NC(=O)c1cc(C(=O)c2ccc(F)cc2)c[nH]1	1	i	-10	-1	-2	0	3	-3
C/C(=N\NC(=O)C1(C)CC1(Br)Br)c1ccc(C)cc1C (stereo not given)	5	i	2	x	-8	-3	1	2
CCOc1ccccc1CNn1cnnc1	-17	x	x	11	-1	1	-1	x
CC1=NN(C(=O)c2ccc(Cn3cc(Br)c([N+](=O)[O-])n3)o2)C(O)(C(F)(F)F)C1 (stereo not given)	x	i	-4	-1	-14	4	6	12
Cc1cc(O)c(C(C)C)cc1NC(=O)c1ccc(Cl)cc1	-6	i	-9	x	-7	4	0	-4
N#CNC(=Nc1cccc(C(F)(F)F)c1)SCc1ccc(C(=O)O)cc1	-25	i	101	21	5	2	-1	11	eIF4H FP inh retest=-4;PABP FP inh retest=-7
COC(=O)c1ccc(COc2ccccc2/C=C(\C#N)C(=O)Nc2c(C)cccc2C)cc1	x	i	-1	6	102*	-5	-15	-6
C=CCn1c(SCc2nc3ccccc3c(=O)[nH]2)nc2ccccc2c1=O	x	i	6	x	8	-8	-4	5
NC(=O)c1ccsc1NC(=O)COC(=O)Cc1ccccc1[N+](=O)[O-]	-11	x	x	17	x	-3	-5	x
COc1ccc(NC(=O)C2(C)Cc3c(-c4cccc(C(F)(F)F)c4)ccnc3O2)cc1OC (stereo not given)	16	x	x	18	x	-4	-13	x

More results follow.
SMILES	UUG fidelity	Rce1 inhib	eIF4H FP inh	HIV Env fusion	CSC inhib	MT1-MMP act inh	MT1-MMP act inh RFP	PABP FP inh	others
Cc1ccc(C)c(NC(=S)NC(NC(=O)Cc2cccc3ccccc23)C(Cl)(Cl)Cl)c1 (stereo not given)	-27	i	-6	x	u	-37	-24	-4
CSCC[C@@H](CO)NC(=O)[C@H]1O[C@@H](n2ccc(=O)[nH]c2=O)[C@H](O)[C@@H]1O	-6	x	x	17	x	3	1	x
O=C(Nc1cccc(NC(=O)c2cccnc2)c1)c1cccnc1	-3	i	-11	x	-5	13	0	-4
CCCCC(CC)CNC(=O)C1CC=CCC1C(=O)O (stereo not given)	x	i	0	-11	-7	3	1	-13
COc1ccc(N2CCN(C(=O)CSc3nnc4c(C)cc5c(C)cc(C)cc5n34)CC2)cc1	-9	i	-6	u	-2	-2	-9	2
Cc1ccc(C(=O)NCCSC(C)(C)C)cc1[N+](=O)[O-]	x	i	5	-29	1	6	7	7
COCCN1Cc2cccc(C(=O)NCCc3ccccc3)c2C1=O	-11	i	16	9	-2	3	1	16
Cc1nnc(NC(=O)CSc2nc(CC(C)C)nc3c2c(=O)n(C)c(=O)n3C)s1	x	i	0	-2	-5	-1	-1	-8
CCCSc1nc(NCc2ccco2)c2c3c(sc2n1)COC(C)(CC)C3 (stereo not given)	-11	i	5	-66	38	-10	-12	10
Cc1ccccc1N1C(=O)CC(Nc2ccc3c(c2)OCO3)C1=O (stereo not given)	x	i	7	-50	x	-4	2	10
COc1ccc(C)cc1N1C(=N)/C(=C2/Nc3ccccc3S2)C(c2ccccc2)C1=O (stereo not given)	-12	x	-3	-20	112*	-8	-9	10
COCCN(C(=O)COC(=O)c1ccco1)c1c(N)n(Cc2ccccc2)c(=O)[nH]c1=O	x	i	x	-4	-7	0	-2	x
COc1ccc(CC(=O)Nc2ccc(S(=O)(=O)N(C)C3CCN(C)CC3)cc2)cc1	-8	x	x	14	x	2	3	x
COc1ccc(-c2cnnn2-c2ccc(NC(=O)c3ccc(S(=O)(=O)N4CCCCC4)cc3)cc2)cc1	-9	i	6	1	1	-3	-8	-4
COc1ccc(C(C(=O)Nc2ccc3c(c2)OCO3)N(C)C(=O)Cc2c[nH]c3ccccc23)cc1 (stereo not given)	x	i	-2	x	-4	-9	-7	1
COc1cc(CN2CCNC(=O)C2CC(=O)N(C)Cc2ncc[nH]2)cc(OC)c1 (stereo not given)	0	i	15	-10	6	-3	-2	16
O=C(CNC(=O)C1COc2ccccc2O1)N/N=C/c1ccc([N+](=O)[O-])cc1 (stereo not given)	-8	i	0	14	-12	-2	0	8
COc1cccc(NC(=O)C2CCN(c3ncccn3)CC2)c1	-2	i	3	-4	10	8	3	-8
Cc1cc(C)cc(OCCNS(=O)(=O)c2cccs2)c1	x	i	-8	-23	4	-2	2	6
CC(C)(C)OC(=O)N1CCC(C(=O)NCC2CCCO2)CC1 (stereo not given)	-10	i	-7	6	-2	6	4	-1
COc1ccc(Nc2nc3cc(-c4ccccc4C)sc3c(=O)n2C)cc1OC	-11	x	x	-23	x	2	1	x
CCOC(=O)c1ccc(Oc2nc(NC(C)(C)C)nc(N(C)C)n2)cc1	5	i	-12	x	28	-38	-43	-1
Cc1ccc(C(=O)CCC2CCCC2=O)cc1 (stereo not given)	x	i	-7	x	-6	2	2	3
COc1ccc(C(=O)Nc2cccc(S(C)(=O)=O)c2)cc1	x	i	-4	-1	-12	-1	-1	10
Cc1ccccc1OCc1nc(-c2cccnc2)no1	x	i	-2	-28	-1	-1	-3	-2
O=[N+]([O-])c1cccc(/C=N/Nc2nc(C(Cl)(Cl)Cl)nc3ccccc23)c1	x	i	6	32	19	-9	-8	6
CCN(c1ccccc1)S(=O)(=O)c1cccc(C(=O)NCCOc2ccccc2OC)c1	5	x	x	4	x	-2	0	x

Screening data as filed in PubChem.
